Lassa entry inh: blocks Lassa virus binding to or entry into cells | Lassa virus pseudotype entry inhibition, cell reporter; control for the full effect not named in the record | Potency, µM (titrated, usually from 37.9 µM), for inactives: top-dose activity change, negative = inhibition, actives largely listed as inhibitors | actives 1.2% (n = 300,000); active means well fitted inhibition curve with a large enough effect; inconclusive means small, poorly fitted or top-dose-only effect, or effect the other way; inactive means flat fitted curve, though single readings scatter; tested in HEK293 cells; also: % is scaled to controls: 0 for no effect and ±100 for the full control effect; nearly all actives have a fitted effect of over 50% in size; luciferase read-out
Cruzain noTriton: cruzain (T. cruzi) inhibition without detergent; purified cruzain, Z-FR-AMC fluorescence, no detergent; Potency, µM, without a hit: max response, negative = inhibition, most hits filed as inhibitors; actives 2.3% (n = 200,000); AID 1476;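 also: plate controls were enzyme without inhibitor for no effect and buffer without enzyme for full effect; nearly all actives have a fitted effect of over 40% in size; top concentration of the series not given in the record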
Target sequence (P25779 123-467 limits assumed): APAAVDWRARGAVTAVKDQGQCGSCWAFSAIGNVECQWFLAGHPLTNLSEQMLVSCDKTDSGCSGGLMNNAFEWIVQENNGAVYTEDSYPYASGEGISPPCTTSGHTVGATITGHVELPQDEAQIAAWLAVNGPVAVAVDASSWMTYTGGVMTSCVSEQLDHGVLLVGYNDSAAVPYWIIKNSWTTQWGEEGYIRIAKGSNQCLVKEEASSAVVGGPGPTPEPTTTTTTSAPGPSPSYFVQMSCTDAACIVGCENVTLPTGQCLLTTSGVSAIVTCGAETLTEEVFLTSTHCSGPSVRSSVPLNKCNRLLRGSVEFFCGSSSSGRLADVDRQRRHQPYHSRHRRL
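Purified cruzain at 1.5 nM, pre-incubated 15 min with compound at room temperature in 100 mM sodium acetate pH 5.5, 5 mM DTT, 0.00005% Triton X-100. Reaction started with 2 uM Z-FR-AMC; AMC fluorescence increase over 60 s gives rate.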
2A StopGo: lowers the luciferase signal of an FMDV 2A StopGo reporter. actives 1.2% (n = 410,000). Potency, µM (top dose mostly 57.9 µM), for inactives: at the highest dose signal change, negative = less light. human cells with a luciferase reporter of 2A StopGo recoding; control for the full effect not named in the record. AID 1159524; active = well fitted falling curve with a large enough effect; inconclusive = small, poorly fitted or top-dose-only effect; inactive = no such curve, though single readings can be large or run the other way; tested in HEK293T cells; also: % is scaled to controls: 0 for no effect and ±100 for the full control effect; nearly all actives have a fitted effect of over 45% in size; luciferase light after 4 h
Cruzain Triton: inhibitors of Trypanosoma cruzi cruzain with detergent. Potency, µM, inactives show max response, negative = inhibition, hits mostly inhibitors. purified cruzain, Z-FR-AMC fluorescence, 0.01% Triton. actives 0.43% (n = 200,000). AID 1478. P25779;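 also: plate controls were neutral wells for no effect and buffer without enzyme for full effect; nearly all actives have a fitted effect of over 40% in size; top concentration of the series not given in the record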
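15 min RT preincubation of 1.5 nM cruzain with compound, then 2 uM Z-FR-AMC added; kinetic AMC fluorescence, 60 s delta. Triton X-100 0.01%, pH 5.5.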
RE007 growth inh: less growth of the S. pombe RE007 Vpr strain. S. pombe RE007 Vpr strain, BacTiter-Glo ATP luminescence, 24 h; control for the full effect not named in the record. AID 651644. actives 0.21% (n = 360,000). Potency, µM (doses to about 92.2 µM), inactives show top-dose activity change, negative = less growth; active = well fitted falling curve with a large enough effect; inconclusive = small, poorly fitted or top-dose-only effect; inactive = no such curve, though single readings can be large or run the other way;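 also: % is scaled to controls: 0 for no effect and ±100 for the full control effect; nearly all actives have a fitted effect of over 50% in size; the assay follows cell death caused by Vpr and the record does not say whether a fall means rescue or toxicity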
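Fission yeast strain RE007, carrying one chromosomally integrated HIV-1 vpr copy, was seeded at OD 0.01 in PMG+AL medium with 23 nL pinned compound. After 24 h at 30 °C and 99% humidity, viability was read by BacTiter-Glo luminescence.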
MARV entry inh: Marburg virus entry inhibition; Potency, µM (top dose mostly 37.8 µM), for inactives: top-dose activity change, negative = inhibition, actives largely listed as inhibitors; Marburg virus pseudotyped entry inhibition, cell reporter; control for the full effect not named in the record; about a third of the inactives were read at about 46 µM; actives 1.8% (n = 300,000); active = well fitted inhibition curve with a large enough effect; inconclusive = small, poorly fitted or top-dose-only effect, or effect the other way; inactive = flat fitted curve, though single readings scatter; tested in HEK293 cells; about a fifth of its hits are not listed in these tables; also: % is scaled to controls: 0 for no effect and ±100 for the full control effect; luciferase read-out
NS1 inh: blocks influenza NS1 protein function. S. cerevisiae slowed by influenza A NS1, growth recovery by OD600. Potency, µM (highest dose often 46.1 µM), for inactives: at the top dose activity, positive = more growth. actives 0.4% (n = 270,000). AID 2326; active means well fitted rising curve with a large enough effect; inconclusive means small, poorly fitted or top-dose-only effect; inactive means no such curve, though single readings can be large or run the other way; also: nearly all actives have a fitted effect of over 50% in size
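OD600 was taken as the measure of yeast growth restored by compound in an NS1-expressing S. cerevisiae strain. Cells had been washed out of glucose medium and diluted 1:100 into galactose -URA medium, pH 6.0.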
SARS PLP yeast: SARS-CoV PLP inhibition in yeast | S. cerevisiae expressing SARS-CoV PLpro, growth rescue; control for the full effect not named in the record | Potency, µM (doses to about 32.9 µM), for the others: at the highest dose activity, positive = growth rescue | AID 485353 | actives 0.19% (n = 330,000); active means well fitted rising curve with a large enough effect; inconclusive means small, poorly fitted or top-dose-only effect; inactive means no such curve, though single readings can be large or run the other way; also: 0% is about no effect; nearly all actives have a fitted effect of over 55% in size; growth read by luminescence after 48 h
The depositor's hits bear a star; ? = inconclusive; · = not tested or not shown; & = joins results of further samples; [ ] = another dose, or the depositor's remark. Unless noted, calls follow the shape of the dose curve; as a rule, active = well fitted curve in the direction sought with a large enough effect; inconclusive = small, poorly fitted or top-dose-only effect, or another doubt; inactive = no such curve, though single readings can be large; an effect the other way counts as inactive or inconclusive. Potency is read from the fitted curve at half-maximal effect.

SMILES	Lassa entry inh	Cruzain noTriton	2A StopGo	Cruzain Triton	RE007 growth inh	MARV entry inh	NS1 inh	SARS PLP yeast
COC(=O)N/N=C/c1c[nH]c2ccccc12	0%	-9%	0%	-3.7%	18%	22%	4%	11%
CN(C)CCNC=C(C(=O)Nc1ccc(Cl)cc1Cl)C(=O)Nc1ccc(Cl)cc1Cl	2%	-29%	-12%	-19%	6%	?	3%	-13%
C/C(CC(=O)NC(C)(C)C)=N\NC(=O)COc1ccc(C)cc1Br	?	·	13%	·	10%	16%[46.1 µM]	·	-1%
CCNC(=S)NS(=O)(=O)c1ccc(F)cc1	3%	·	8%	·	?	?	-10%	-4%
Cc1nc2scc(C)n2c(=O)c1S(=O)(=O)Nc1ccc(N2CCN(S(C)(=O)=O)CC2)cc1	-17%[46.1 µM]	-2%	?	-4.3%	-4%	?	-2%	-3%
COc1ccc(-c2cn[nH]c2C)cc1OC	15%[46.1 µM]	·	-18%	·	16%	-19%[46.1 µM]	4%	1%
O=C(O)CCc1ccc(-c2ccccc2)n1-c1cccc(C(=O)O)c1	·	·	21%	·	-15%	·	?	-1%
NC(=O)c1c(NC(=O)CS(=O)(=O)c2ccc(Cl)cc2)sc2c1CCCC2	13%[46.1 µM]	4%	0%	-1.1%	·	·	·	·
COc1cc2[nH]c(=S)nc(NCc3ccccc3)c2cc1OC	·	·	17%	·	-5%	9%	-2%	-1%
CCOc1c(Br)cc(C(N)=O)cc1OCc1ccccc1	12µM*	3%	21%	0.1%	-11%	?	-49%	2%
Cc1ccc2scc(N3CCN(c4ccccc4)CC3)c(=O)c2c1	16%[46.1 µM]	2%	0%	-5.8%	·	·	·	·
Cc1cc2nc(N)sc2cc1[N+](=O)[O-]	13%	-7%	·	-10.0%	4%	2%	-52%	-11%
CN(C(=O)COC(=O)c1nc(Cl)c(Cl)c(Cl)c1Cl)C1CCS(=O)(=O)C1 (stereo not drawn)	5.6µM*	·	16µM*	·	-7%	?	-4%	0%
O=C(NC1CCCCC1)C(c1ccccc1)N1CCOCC1 (stereo not drawn)	2%	-2%	-12%	3.4%	3%	?	10%	-5%
O=C(Nc1ccc(OCc2ccccc2)cc1)Nc1cccnc1	-21%[46.1 µM]	·	4%	·	-2%	-23%[46.1 µM]	4%	-1%
O=C1CCCN1CCCN1CC(C(=O)N(CCO)Cc2ccccc2)CCC1=O (stereo not drawn)	21%	·	-22%	·	8%	6%	7%	-5%
COc1ccc(NC(=O)c2cc(C(C)C)on2)c(OC)c1	·	-2%	40%[activator]	-2.3%	-15%	·	-14%	-13%
CN1C(=O)CC(N2CCC(C(N)=O)(N3CCCCC3)CC2)C1=O (stereo not drawn)	-21%	-2%	-14%	6.7%	-19%	5%	3%	-1%
Cc1cc(C(=O)NCCN2CCOCC2)ccc1[N+](=O)[O-]	-1%	·	6%	·	-2%	?	5%	-1%
COc1cc(C(=S)N2CCCC2)ccc1OS(=O)(=O)c1ccc(NC(C)=O)cc1	16µM*	·	20µM*	·	11%	-24%	·	0%
COCCNc1nc(N)c([N+](=O)[O-])c(NCc2ccccc2)n1	22%[46.1 µM]	·	9%	·	32%	?	-9%	-2%
BrC(=C\c1ccccc1)/C=N/Nc1ccc2nncn2n1	-25%[46.1 µM]	·	-2%	·	16%	-6%[46.1 µM]	-2%	-1%
CCOC(=O)CC(=O)CSc1nc2ccsc2c(=O)n1Cc1ccccc1	-1%[46.1 µM]	1%	-10%	0.0%	·	·	·	·
COC(=O)c1ccc(/C=N/NC(=O)c2ccc3nc[nH]c3c2)cc1	·	·	6%	·	-7%	·	14%	-11%
C[C@H](NC(=O)N1CCn2c1nc1ccccc12)C(=O)NC1CC1	·	·	-12%	·	8%	·	0%	-3%
O=C(NNC(=O)c1ccc(Br)s1)NC1CCCCC1	-3%	·	72%[activator]	·	5%	27%	5%	3%
Cc1ccccc1-c1nnc(SCC(=O)Nc2cccc(C)c2C)o1	?	-14%	-5%	1.8%	13%	6%	-10%	10%
Cc1ccc(Cn2ccc(NC(=O)c3cc(C(C)C)on3)n2)cc1	·	-3%	11%	-9.0%	-10%	·	-95%	13%
CC(=O)Nc1ccc(NC(=O)CSc2nc3[nH]ncc3c(=O)n2-c2ccccc2)cc1	·	·	-3%	·	2%	·	-4%	-2%
CCOC(=O)CSc1nc(Cc2ccccc2)nc2ccccc12	-2%[46.1 µM]	·	0%	·	19%	4%[46.1 µM]	-30%	-1%
O=C(c1cc(COc2ccc(F)c(F)c2)on1)N1CCN(C/C=C/c2ccccc2)CC1	?	·	0%	·	-5%	?	-82%	-12%
CC(C)(C)C(=O)OCc1nc(-c2ccc(O)c(O)c2)cs1	-13%	·	-1%	·	23%	4%[14.2 µM]	-41%	0%
CC(C)C(NC(=O)c1cccs1)c1nnc(SCC(=O)Nc2nccs2)n1C (stereo not drawn)	2%	2%	-4%	3.7%	1%	22%	-6%	4%
CCOc1ccc(NS(=O)(=O)c2ccc(C(=O)NCC(c3ccc(OC)cc3)N3CCOCC3)cc2)cc1 (stereo not drawn)	?	·	20%	·	0%	-26%	·	3%
NS(=O)(=O)c1ccc(CNC(=O)c2cc(-c3ccccn3)nc3ccc(Cl)cc23)cc1	9%	·	-8%	·	5%	9%[46.1 µM]	·	3%
COc1ccc(NC(=S)NCCc2ccccc2OC)c(OC)c1	-2%	4%	-2%	-0.5%	-3%	10%	-9%	-2%

Next section (two carried over from the part before).
SMILES	Lassa entry inh	Cruzain noTriton	2A StopGo	Cruzain Triton	RE007 growth inh	MARV entry inh	NS1 inh	SARS PLP yeast
NS(=O)(=O)c1ccc(CNC(=O)c2cc(-c3ccccn3)nc3ccc(Cl)cc23)cc1	9%	·	-8%	·	5%	9%[46.1 µM]	·	3%
COc1ccc(NC(=S)NCCc2ccccc2OC)c(OC)c1	-2%	4%	-2%	-0.5%	-3%	10%	-9%	-2%
N=c1c(C(=O)NCC2CCCO2)cc2c(=O)n3ccccc3nc2n1C1CCCCC1 (stereo not drawn)	18%[46.1 µM]	·	-3%	·	-9%	?	21%	5%
Cc1nc(NC(=O)CN2CCOCC2)sc1-c1ccccc1	?	20%	8%	-4.7%	0%	?	-7%	-6%
O=C(c1cnn2c(C(F)(F)F)cc(-c3ccccc3)nc12)N1CCCc2ccccc21	0%	4%	-2%	-2.0%	-6%	-17%	-2%	-2%
CCn1cc(C(=O)NCc2ccccc2OC)c(=O)c2cc(S(=O)(=O)N3CCCCCC3)ccc21	16%[46.1 µM]	?	-13%	-4.9%	·	-4%[46.1 µM]	·	·
Cc1cccc(CCNC(=O)c2cc(S(=O)(=O)N3CCCCC3)c[nH]2)c1	-10%[46.1 µM]	-22%	0%&0%	-4.4%	0%	·	-3%	-1%
O=C(NC1CCCCC1)C(c1c(F)cccc1Cl)N(C(=O)c1csnn1)C1CC1 (stereo not drawn)	13%	·	0%	·	-5%	-6%[46.1 µM]	-2%	3%
Nc1ccc2oc(Cc3ccc(Cl)cc3)nc2c1	·	?	-22%	-4.8%	·	-27%[46.1 µM]	·	·
O=C(Nc1ccc(Cc2ccncc2)cc1)c1ccc(Br)o1	10%	4%	11%	-0.3%	-9%	2%[46.1 µM]	-49%	-1%
Cc1cccnc1NC(=O)Nc1ccccc1	·	·	22%	·	-14%	·	-42%	0%
C/C=C/c1ccc(OCCCCN2CCN(CC)CC2)c(OC)c1	-28%	·	18%	·	-9%	?	3%	0%
Cc1cc(C)c(N=Cc2c(O)c3ccccc3oc2=O)c(C)c1	24%	·	44%[activator]	·	5%	0%	-13%	1%
CCc1[nH]nc2c1C1(C(=O)N(Cc3ccccc3)c3ccccc31)C(C#N)=C(N)O2 (stereo not drawn)	-27%	-13%	·	-1.3%	-3%	-26%	-16%	2%

Single records, from the list above. Order of values: Lassa entry inh | Cruzain noTriton | 2A StopGo | Cruzain Triton | RE007 growth inh | MARV entry inh | NS1 inh | SARS PLP yeast
O=C(NC1CCCCC1)C(c1c(F)cccc1Cl)N(C(=O)c1csnn1)C1CC1 (stereo not drawn) in the list: 13% | · | 0% | · | -5% | -6%[46.1 µM] | -2% | 3%
O=C(Nc1ccc(Cc2ccncc2)cc1)c1ccc(Br)o1 in the list: 10% | 4% | 11% | -0.3% | -9% | 2%[46.1 µM] | -49% | -1%
Cc1cccnc1NC(=O)Nc1ccccc1 in the list: · | · | 22% | · | -14% | · | -42% | 0%
Cc1cc(C)c(N=Cc2c(O)c3ccccc3oc2=O)c(C)c1 in the list: 24% | · | 44%[activator] | · | 5% | 0% | -13% | 1%
CCc1[nH]nc2c1C1(C(=O)N(Cc3ccccc3)c3ccccc31)C(C#N)=C(N)O2 (stereo not drawn) in the list: -27% | -13% | · | -1.3% | -3% | -26% | -16% | 2%

The listing picks up with the 2 entries that preceded the break.
SMILES	Lassa entry inh	Cruzain noTriton	2A StopGo	Cruzain Triton	RE007 growth inh	MARV entry inh	NS1 inh	SARS PLP yeast
Cc1cc(C)c(N=Cc2c(O)c3ccccc3oc2=O)c(C)c1	24%	·	44%[activator]	·	5%	0%	-13%	1%
CCc1[nH]nc2c1C1(C(=O)N(Cc3ccccc3)c3ccccc31)C(C#N)=C(N)O2 (stereo not drawn)	-27%	-13%	·	-1.3%	-3%	-26%	-16%	2%
COc1ccc(OC)c(CCNC(=O)CC2Oc3ccccc3NC2=O)c1 (stereo not drawn)	·	-1%	-24%	-0.4%	11%	·	-33%	-6%
COc1ccc(OC)c2c(C)cc(C)nc12	1%	-4%	-27%	-1.0%	9%	?	-16%	-26%
COc1ccccc1-c1cc2ccccc2[nH]1	25%	-7%	64%[activator]	-12%	-29%	28%	-5%	-2%
COc1ccc(-c2c(C)c3ccc(O)c(CN4CCOCC4)c3oc2=O)cc1	-2%[46.1 µM]	10%	2%	-7.5%	·	·	·	·

This is a random part of the collection; overall some 4.8% were active at least once.
